Assay outcomes (PubChem BioAssay)
eIF4H inh: inhibitors of RNA binding by human eIF4H; Q15056; eIF4H fluorescence polarization binding assay; inhibition, % at 35 µM; 290,000 compounds, 0.94% hits;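 active means 50% or more with normal probe brightness, or confirmed in later tests; inconclusive means above 50% with abnormal brightness, or retests that disagree; inactive means below 50% or failed in later tests; about a fifth of its hits are not listed in these tables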;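 further: calls also rest on retests at 20 µM and on dose response follow-up; 0% = protein and probe with vehicle and 100% = probe without protein; strong numbers were not always called active; many hits fall short of the cut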
PABP FP inh: blocks human PABP binding to poly(A) RNA; 290,000 compounds, 1% hits; P11940; inhibition, % at 35 µM; AID 2014; fluorescence polarization;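 active means 50% or more with normal probe brightness, or confirmed in later tests; inconclusive means above 50% with abnormal brightness, or retests that disagree; inactive means below 50% or failed in later tests; about a fifth of its hits are not listed in these tables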;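 further: calls also rest on retests at 20 µM and on dose response follow-up; controls were probe without protein and protein plus probe with vehicle; some compounds called inactive have numbers as strong as hits; many hits fall short of the cut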
Target sequence (P11940 whole entry, looked up): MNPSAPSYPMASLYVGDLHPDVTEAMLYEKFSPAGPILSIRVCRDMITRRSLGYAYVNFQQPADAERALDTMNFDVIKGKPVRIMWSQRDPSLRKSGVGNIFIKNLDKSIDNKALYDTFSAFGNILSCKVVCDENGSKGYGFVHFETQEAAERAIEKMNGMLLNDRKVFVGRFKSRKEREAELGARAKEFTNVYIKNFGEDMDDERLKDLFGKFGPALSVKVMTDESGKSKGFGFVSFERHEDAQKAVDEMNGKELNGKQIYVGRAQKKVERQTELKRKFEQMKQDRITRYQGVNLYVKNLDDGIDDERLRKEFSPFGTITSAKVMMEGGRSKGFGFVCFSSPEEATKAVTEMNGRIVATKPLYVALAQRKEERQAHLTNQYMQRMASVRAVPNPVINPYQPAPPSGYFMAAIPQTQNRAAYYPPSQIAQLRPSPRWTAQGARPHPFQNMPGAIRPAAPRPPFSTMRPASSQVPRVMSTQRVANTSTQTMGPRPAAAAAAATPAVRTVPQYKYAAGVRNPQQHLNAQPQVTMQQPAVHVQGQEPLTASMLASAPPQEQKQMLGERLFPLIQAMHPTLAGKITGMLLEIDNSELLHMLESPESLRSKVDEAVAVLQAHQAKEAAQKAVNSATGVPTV
Env fusion inh: blocks HIV Env-driven cell-cell fusion | inhibition, % at 12.3 µM | AID 651610 | 360,000 compounds, 1.1% hits | HeLa-JRFL Env/CEM21 cell fusion, luciferase;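 active means mean replicate inhibition score of at least 50 and every replicate individually at or above 50; inconclusive means only one of the two criteria met; inactive means mean below 50 and not all replicates reaching 50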;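 further: 0% = plate neutral controls and 100% = maraviroc near 300 nM; one replicate is shown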
UUG fidelity: alters start codon recognition fidelity in yeast; S. cerevisiae UUG-firefly luciferase reporter, luminescence/redox ratio; activity score, % at 18.7 µM; 350,000 compounds, 0.13% hits;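 active means replicate mean at a twofold rise or more, about +100% in these data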;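 further: firefly luciferase made from a UUG start codon reports start codon fidelity; reporter light over untreated wells divided by growth signal over untreated wells; some hits fall short of that in this replicate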
Rce1 inh: blocks yeast Ras-converting enzyme; calls only; Q03530; yeast membranes, quenched prenylated peptide cleavage fluorescence; AID 2563; 290,000 compounds, 0.27% hits;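 active means fall in fluorescence gain of 50% or more versus controls, with final raw signal at or below 3038400; inconclusive means same 50% fall but final raw signal above 3038400; inactive means fall in fluorescence gain under 50%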;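 further: plate controls were neutral control wells for no effect and wells lacking membranes for full effect; tested at 10 µM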
CSC inhib: blocks cancer stem cells. cancer stem cell-like cells viability, luminescence. inhibition, % at 7.5 µM. 300,000 compounds, 1.1% hits. AID 2717;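 active means mean at 75% or more and at least half the replicates too; inconclusive means mean and replicates disagree; tested in HMLE shEcad cells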;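 further: 0% = median of negative and 100% = median of positive control wells; the first replicate is given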
MT1-MMP act inh: MT1-MMP (human) activation inhibition; P50281; HT1080 RFP-PRO-GFP cells, GFP/RFP ratio fluorescence, overnight; percent of plate control window, DMSO zero; GFP/RFP ratio change, % at 20 µM; 360,000 compounds, 0.061% hits; AID 651647;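 active means GFP/RFP ratio change of at least 30% with cell ATP level not reduced by more than half and red fluorescence within 50% of control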; further: strong numbers were not always called active
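Read-out: GFP/RFP fluorescence ratio; Test system: RFP-PRO-GFP reporter HT1080 cells; Compound dosing: single-point 20 µM compound, 1% DMSO; Times: overnight compound exposure at 37 °C.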
eIF4H inh retest: further read-out of eIF4H inh, marked with its call; inhibition, %; compound at 20 µM; confirmation average;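 mean of two retest wells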
PABP FP inh retest: also measured in PABP FP inh; calls as there; inhibition, %; compound at 20 µM; confirmation repeats;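 mean of two retest wells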
MT1-MMP act inh RFP: recorded beside MT1-MMP act inh, whose call it bears; RFP signal change, %; measured here: RFP expression control read;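 0 = vehicle wells; hits needed this value within 50% of zero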
Active calls of the source: *; i = inactive; ? = inconclusive; nt = not tested or not shown.

SMILES | eIF4H inh | PABP FP inh | Env fusion inh | UUG fidelity | Rce1 inh | CSC inhib | MT1-MMP act inh | MT1-MMP act inh RFP | others
COC(=O)C(NS(=O)(=O)c1ccc(NC(C)=O)cc1)C(C)C (centres undefined) | 1 | -12 | nt | -10 | i | 10 | -2 | 1
CCn1c(SCC(=O)Nc2nncs2)nnc1-c1ccco1 | -7 | -3 | 0 | -12 | i | nt | 1 | 5
Cc1ccc(S(=O)(=O)N2CCOCC2)cc1NC(=O)CSc1nnc(N)s1 | -5 | 19 | -3 | -38 | i | 1 | -1 | 1
CCN1C(=O)c2ccccc2S(=O)(=O)c2ccc(C(=O)N3CCOCC3)cc21 | 3 | -2 | 29 | -20 | i | -3 | 2 | 3
CCc1csc(CNC(=O)C2CCC(=O)N(Cc3cccc(OC)c3)C2)n1 (centres undefined) | nt | nt | 24 | -13 | nt | nt | 4 | 6
COc1ccccc1C(=O)Nc1ccnn1C1CCN(C/C=C/c2ccccc2)CC1 | 12 | 0 | -4 | 1 | i | -14 | -2 | 1
S=C(Nc1ccc(Cl)cc1)N1CCN(C2CCCCC2)CC1 | 8 | 5 | -16 | -8 | i | -13 | 16 | -2
COc1ccc(N2CCN(C(=O)c3ccc(Br)o3)CC2)cc1 | 7 | -8 | -26 | -5 | i | 6 | 5 | 7
O=C(/C=C/c1ccc([N+](=O)[O-])cc1)Oc1ccc(/C=N/NC(=O)c2ccncc2)cc1 | 2 | 11 | -5 | -11 | i | -2 | 1 | 5
O=C(NCC12CC3CC(CC(C3)C1)C2)c1nn2c(c1Cl)NC(c1ccco1)CC2C(F)(F)F (centres undefined) | 55 | 9 | -12 | -9 | i | 1 | -25 | -10 | eIF4H inh retest=2;PABP FP inh retest=-2
CN(c1cccc(NC(=O)CN(c2cccc(Cl)c2)S(=O)(=O)c2ccc(Cl)cc2)c1)S(C)(=O)=O | -1 | -12 | -38 | -1 | i | 2 | -2 | -6
Cc1cc(C(=O)O)c2ccccc2n1 | -1 | 7 | -100 | 12 | i | -1 | -1 | 3
Cn1c(SCC(=O)N2CCCC2)nnc1-c1cccs1 | 4 | 2 | 9 | -12 | i | -12 | -1 | 0
Cc1ccc(C(=O)/C=C/c2c[nH]c3ccccc23)cc1 | -8 | -2 | nt | -29 | i | 27 | 2 | -1
NNc1nccc(Nc2ccccc2C(=O)O)n1 | 70 | 1 | 7 | -7 | i | -10 | -7 | 1 | eIF4H inh retest=-4;PABP FP inh retest=35
Cn1c(C(=O)O)c(C=O)c2ccccc21 | -12 | -6 | 5 | -9 | i | -12 | 1 | 1
CC(=O)Nc1c(C(=O)O)oc2ccccc12 | -5 | 18 | -11 | -5 | i | -4 | -5 | 3
NC(=O)Nc1ccccc1C(=O)NCCc1ccccc1 | -8 | 3 | -69 | -7 | i | 2 | 2 | -1
Cc1cc(NC(=O)CS(=O)(=O)c2cn(Cc3cccc(Cl)c3)c3ccccc23)no1 | nt | nt | ? | -11 | nt | nt | -1 | -20
Cc1cccn2c(=O)c3cc(C#N)c(=NC(=O)c4ccco4)n(Cc4ccco4)c3nc12 | ? | ? | 5 | -6 | i | -5 | -21 | -1
COCCN1CC(C(=O)NCc2ccccc2-n2ccnc2C)CCC1=O (centres undefined) | -23 | -12 | -10 | -21 | nt | -5 | -2 | 4
COc1ccc(-n2c(SC(C)C(=O)N3CCOCC3)nc3ccccc3c2=O)cc1 (centres undefined) | 2 | -8 | 7 | -23 | i | -6 | -1 | -1
COc1ccc(N=C2SC(CC(=O)Nc3ccccc3)C(=O)N2CCc2ccccn2)cc1 (centres undefined) | 1 | -3 | nt | -16 | i | nt | 2 | -1
N=c1c(S(=O)(=O)c2ccc(Br)cc2)cc2c(=O)n3ccccc3nc2n1Cc1ccccc1 | 39 | 50 | -32 | -31 | i | 11 | -9 | -4
C/C(=N\Nc1nc(N2CCOCC2)nc(N2CCOCC2)n1)c1cccc([N+](=O)[O-])c1 | 7 | -2 | -1 | nt | i | nt | 1 | 1
O=C(NCc1ccc(Cl)cc1)C1CCCCN1S(=O)(=O)c1ccccc1 (centres undefined) | -8 | 4 | -2 | -10 | i | -12 | -4 | -5
CCN(C(=O)COC(=O)c1ccc[nH]c1=O)c1cccc2ccccc12 | nt | nt | -9 | nt | nt | -20 | 0 | 5
O=C(NCc1ccc2c(c1)OCO2)C1CC(=O)N(c2ccc(O)cc2)C1 (centres undefined) | -8 | -11 | nt | -6 | i | -6 | -2 | 3
CC1Oc2ccccc2N(CC(=O)c2ccc(F)cc2)C1=O (centres undefined) | 6 | 15 | 3 | nt | i | -3 | 8 | 4
Cc1ccc([N+](=O)[O-])c(OCCN2CCCCCC2)c1 | 8 | 23 | -11 | nt | i | -1 | 6 | 7
COC(=O)[C@H](Cc1ccccc1)NC(=O)N1CCCCC1 | 5 | -6 | -10 | 10 | i | -10 | 2 | -2
O=C(COc1ccccc1)NC1CCCN(Cc2ccccc2F)C1 (centres undefined) | 0 | -6 | -15 | -30 | i | -7 | -1 | 0
Cc1c(C)c2ccc(OCC(=O)Nc3nccs3)cc2oc1=O | nt | nt | 0 | -41 | i | 4 | -1 | -10
Cc1ccc(C(=O)N2CC(=O)Nc3ccc(C)cc3C2c2ccccc2)cc1 (centres undefined) | -1 | 12 | 40 | 12 | i | nt | -2 | 0
O=C1CN(C(=O)COc2ccc(Cl)cc2Cl)c2ccccc2N1 | -9 | 9 | -18 | -14 | i | -6 | -1 | 0
Cc1ccc(CC(=O)NCc2ccc(F)cc2)cc1 | -5 | -18 | -5 | nt | nt | -17 | -7 | -4
CC1(C)Cc2c(sc3c2C(=O)N(c2ccccc2)C2=NCCCN23)CO1 | 6 | 6 | -62 | 29 | i | nt | -2 | 4
O=C(c1ccccc1)N1CCN(CC#Cc2ccccc2)CC1 | -3 | -7 | nt | -20 | i | 4 | 4 | -1
O=C(Nc1ccc(Br)cc1)C(c1ccccc1)c1ccccc1 | 4 | 3 | nt | -15 | nt | -2 | 0 | 5
CC(O)c1cccc(NC(=O)CCCc2ccccc2)c1 (centres undefined) | -10 | 5 | 2 | 5 | i | nt | 1 | 1
O=C(CCCN1CCC(NC(=O)c2ccccc2)CC1)c1ccc(Cl)cc1 | -6 | 8 | -2 | -5 | i | -2 | 8 | 1
CCO[C@H]1OC(C(=O)NCc2nc3ccccc3[nH]2)=C[C@@H](c2ccc(C(F)(F)F)cc2)[C@@H]1CCCO | 0 | -4 | -40 | -6 | i | 3 | 4 | -4
CCOc1cc(/C=N/Nc2nc(-c3cccs3)c(NC(C)=O)s2)ccc1O | 1 | -9 | 0 | nt | i | -4 | -3 | 0
Cc1ccc(NC(=S)NN(C)c2nc(C)cnc2C)cc1 | -5 | -2 | nt | nt | i | -7 | -2 | 6
CNc1nnc(CSc2nc(C)cc(C)n2)s1 | -4 | 16 | nt | -10 | i | -15 | 2 | -1
Cc1cccnc1NC(=O)C1CC(=O)N(c2ccc3c(c2)OCCO3)C1 (centres undefined) | nt | nt | 16 | -21 | i | nt | 3 | 0
O=C(NNC1=Nc2ccccc2SC1)c1cccc([N+](=O)[O-])c1 | 10 | -1 | ? | -19 | i | nt | 5 | -25
O=C(Nc1ccccc1N1CCCC1)C1CCN(S(=O)(=O)c2ccccc2C(F)(F)F)CC1 | nt | nt | -3 | 12 | i | 9 | 4 | -3
C[C@H](NS(=O)(=O)c1ccccc1F)C(=O)OCC(=O)Nc1ccc2c(c1)OCCO2 | nt | nt | ? | 6 | nt | 1 | 2 | 3
Cc1ccc(NS(=O)(=O)c2ccc(-n3cccn3)cc2)cc1C | -4 | 3 | 2 | -20 | i | 2 | 7 | -4
COC(=O)c1c(NC(=O)CS(=O)(=O)c2ccccc2)sc(C)c1C | nt | nt | -15 | nt | i | 37 | 1 | -3
Cc1ccc(Nc2ncc3c(n2)CC(C)CC3=O)c(C)c1 (centres undefined) | -6 | -2 | -50 | -49 | i | -2 | -1 | -1
CCC(C)Sc1cccc(-c2nc3cnccn3c2NC2CCCCC2)c1 (centres undefined) | nt | nt | 21 | -12 | nt | nt | -14 | -12
COc1cc(C2SC(C)C(=O)N2CCc2ccccc2)cc(OC)c1OC (centres undefined) | 12 | 4 | 19 | nt | i | -10 | -4 | -2
O=C(O)C1=C[C@@H](c2coc3ccccc3c2=O)C[C@@H](OCc2ccc(CO)cc2)O1 | 2 | -7 | 17 | -20 | i | 21 | -1 | 4
Cc1[nH]c(=S)[nH]c(=O)c1CCC1OCCO1 | 2 | 8 | -26 | nt | i | -9 | 2 | 0
C#CCOCCOCCOCCNc1nc(N2CCN(C(=O)Cn3cc(CCO)nn3)CC2)nc(N2CCN(C(=O)Cn3cc(CCCN=C(N)N)nn3)CC2)n1 | nt | nt | -6 | -9 | nt | nt | 0 | 3
COC(=O)c1ccc(-n2nnnc2SCC(=O)Nc2ccccc2C(=O)OC)cc1 | -1 | 7 | nt | nt | i | nt | 3 | -3
CC(=O)Nc1ccc(C(=O)N2CCc3cc4c(cc3C2C)OCCCO4)cc1 (centres undefined) | 5 | 2 | nt | 5 | i | 2 | 6 | -2
CC1(c2ccc(Cl)cc2)NC(=O)N(CC(=O)N2CCN(S(=O)(=O)c3ccccc3)CC2)C1=O (centres undefined) | nt | nt | nt | nt | i | 6 | -1 | 3

Sorted by formula weight (lowest first): 3 of the compounds above.
SMILES | eIF4H inh | PABP FP inh | Env fusion inh | UUG fidelity | Rce1 inh | CSC inhib | MT1-MMP act inh | MT1-MMP act inh RFP | others
O=C(NNC1=Nc2ccccc2SC1)c1cccc([N+](=O)[O-])c1 | 10 | -1 | ? | -19 | i | nt | 5 | -25
O=C(Nc1ccccc1N1CCCC1)C1CCN(S(=O)(=O)c2ccccc2C(F)(F)F)CC1 | nt | nt | -3 | 12 | i | 9 | 4 | -3
C#CCOCCOCCOCCNc1nc(N2CCN(C(=O)Cn3cc(CCO)nn3)CC2)nc(N2CCN(C(=O)Cn3cc(CCCN=C(N)N)nn3)CC2)n1 | nt | nt | -6 | -9 | nt | nt | 0 | 3

Continuation.
SMILES | eIF4H inh | PABP FP inh | Env fusion inh | UUG fidelity | Rce1 inh | CSC inhib | MT1-MMP act inh | MT1-MMP act inh RFP | others
COc1ccc(OC)c(CNC(=O)c2coc(=O)c3ccccc23)c1 | -3 | -25 | 1 | -6 | i | 0 | 5 | -9
O=C(Cc1ccccn1)c1ccc(F)cc1 | nt | nt | -15 | -20 | i | 6 | -4 | 4
O=C(Cn1cc(C(F)(F)F)ccc1=O)NCC1CCCO1 (centres undefined) | nt | nt | nt | -8 | nt | -7 | 4 | 4
COc1ccc2c(c1)C(=O)N1[C@H]3c4cc(C)ccc4OC[C@@H]3[C@H](c3ccccc3)[C@]1(C)C(=O)N2 | nt | nt | 20 | -17 | nt | 23 | -24 | -19
CCOC(=O)C1=C(C)N=c2s/c(=C/c3ccc(OCC(=O)O)cc3)c(=O)n2C1c1ccc(SC)cc1 (centres undefined) | 63* | 43* | nt | -14 | i | nt | -10 | -6 | eIF4H inh retest=88*;PABP FP inh retest=73*
COC(=O)C1=C(CSCc2ccccc2)NC(=O)NC1c1cc(C)ccc1C (centres undefined) | -1 | 0 | nt | -17 | i | 3 | 6 | 2
C=CC[n+]1ccn(-c2nc3ccccc3nc2[N-]S(=O)(=O)c2cccs2)c1 | 8 | 18 | -2 | nt | i | 0 | 0 | -9
O=C(CN(c1ccccc1)S(=O)(=O)c1ccccc1)NCCSc1nc2ccccc2s1 | -14 | -2 | nt | -9 | i | -8 | nt | nt
CCN(CC)S(=O)(=O)c1ccc(/C=C/C(=O)NC2CCCCC2)cc1 | 7 | -2 | -2 | -2 | i | 19 | 1 | -2

Compounds were not picked by outcome. About 2.9% of those tested had a hit in this group.
